# Arbovirus anti – antivirals against arbovirus infection, primary screen, cell-based, full library, 10K replicate subset; arbovirus infection cell-based antiviral screen; inhibition, % at 10 µM; 200,000 compounds, 0.37% hits; AID 1251, 2008;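 active = inhibition from about 30%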;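 also: bluetongue infection of BSR cells; cell survival read as ATP light after 72 h; 0% = infected wells without compound and 100% = uninfected wells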
# Mtb betalactam – beta-lactam sensitization of Mtb H37Rv, H37Rv. 330,000 compounds, 0.27% hits. inhibition, % at 25 µM. M. tuberculosis H37Rv growth with meropenem, percent inhibition; hits of this screen are not shown here. AID 434955, 2010;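 active = about 74% or more and at least 40 points above the plate without the antibiotic, then above 30% in a dose series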;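 also: growth measured after seven days incubation then overnight dye step; 0% = bacteria only wells and 100% = bacteria with antibiotic; twin plates without the antibiotic show which effects depend on it; some results filed as inactive read as strong as hits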
# RecA intein inh – Mtb RecA intein splicing inhibitors, primary screen, biochemical, fluorescence, HTS; Protein RecA (Mycobacterium tuberculosis (strain ATCC 25618 / H37Rv)), P9WHJ3; cell-free RecA intein splicing; inhibition, %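 (about 9 µM by stock and volumes)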; 290,000 compounds, 0.75% hits; in the data active = inhibition above about 30%;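 also: 0% = vehicle wells and 100% = reference inhibitor control wells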
# Target sequence (P9WHJ3 whole entry, looked up): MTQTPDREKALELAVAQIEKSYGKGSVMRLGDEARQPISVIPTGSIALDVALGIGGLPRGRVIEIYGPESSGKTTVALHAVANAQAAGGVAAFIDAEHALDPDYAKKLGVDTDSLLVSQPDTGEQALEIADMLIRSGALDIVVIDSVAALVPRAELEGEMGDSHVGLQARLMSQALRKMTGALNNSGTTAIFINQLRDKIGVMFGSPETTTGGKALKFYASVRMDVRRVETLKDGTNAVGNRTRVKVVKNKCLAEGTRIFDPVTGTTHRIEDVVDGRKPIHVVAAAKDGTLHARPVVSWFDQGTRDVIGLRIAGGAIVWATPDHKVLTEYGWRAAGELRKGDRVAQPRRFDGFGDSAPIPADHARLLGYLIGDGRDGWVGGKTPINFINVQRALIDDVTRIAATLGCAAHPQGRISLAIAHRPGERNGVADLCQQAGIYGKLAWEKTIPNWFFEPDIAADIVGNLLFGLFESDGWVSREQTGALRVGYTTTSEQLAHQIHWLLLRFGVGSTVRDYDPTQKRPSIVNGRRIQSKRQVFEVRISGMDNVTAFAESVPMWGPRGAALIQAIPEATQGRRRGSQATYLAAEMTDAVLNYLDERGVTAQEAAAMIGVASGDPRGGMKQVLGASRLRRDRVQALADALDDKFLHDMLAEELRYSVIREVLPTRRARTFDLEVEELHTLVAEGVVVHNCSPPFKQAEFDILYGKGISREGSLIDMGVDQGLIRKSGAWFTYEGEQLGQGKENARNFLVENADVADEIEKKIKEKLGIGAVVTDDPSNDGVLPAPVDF
# Mtb H37Rv – M. tuberculosis H37Rv growth inhibitors, H37Rv strain (AID 1626); M. tuberculosis H37Rv growth inhibition; higher % means a stronger effect; inhibition, % at 10 µM; hits with a dose series show IC50 in µM; 220,000 compounds, 0.95% hits;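 active = confirmed in a dose series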;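 also: bacteria incubated seven days before Alamar blue readout; 0% = bacteria only wells and 100% = bacteria with antibiotic wells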
# YopH PTP inh – YopH tyrosine phosphatase inhibitors, primary screen, biochemical, fluorescence Ex485/Em525; YopH tyrosine phosphatase [Yersinia enterocolitica]; inhibition, %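 (about 10 µM by stock and volumes)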; 140,000 compounds, 0.16% hits;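 active = inhibition of 50% or more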;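 also: controls were vehicle for no effect and minimum signal wells for full effect; inactives centre near -20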
# Arbovirus anti repeat – recorded beside Arbovirus anti, whose call it bears; inhibition, %; measured here: 10K subset replicate screen; many hits read low in the repeat;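 first of two repeat runs on a subset; 0% = infected and 100% = uninfected wells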
# Active calls of the source: *; · = not tested or not shown. Some of the compounds tested (hit frequency here may not be typical).
SMILES,Arbovirus anti,Mtb betalactam,RecA intein inh,Mtb H37Rv,YopH PTP inh,others
COc1cc2c(cc1NC(=O)CSc1nnc(Cc3cccs3)n1C)oc1ccccc12,-3,99,4.3,2%,33,
Cc1noc(C)c1CN1C(=O)NC(Cc2ccccc2)(Cc2ccccc2)C1=O,-1,5,4.6,5%,-19,
CCCc1cc(-c2n[nH]c(=S)n2-c2cccc(C)c2)cs1,1,4,-3.0,6%,·,
CCOc1ccc(CN(Cc2ccco2)S(=O)(=O)c2ccc(-n3cnnn3)c(OC)c2)cc1,-7,-10,-0.2,-3%,-17,
O=C(/C=C/c1ccco1)NC(=S)Nc1ccccc1N1CCOCC1,6,-4,1.4,4%,-31,
CCOc1ccc(C(=O)NC(=S)Nc2cc(C)ccn2)cc1[N+](=O)[O-],·,-8,0.2,·,·,
CCC(Oc1ccc(Br)cc1)C(=O)N1CCN(c2ncccn2)CC1 (stereo not given),·,10,-1.5,·,·,
COc1ccc(NS(=O)(=O)c2cc(NC(=O)CCSc3ccccc3)ccc2OC)cc1,-8,2,1.6,6%,-1,
Cc1cccnc1NC(=O)CN1C(=O)NC(C)(c2ccc3ccccc3c2)C1=O (stereo not given),·,-3,1.3,·,·,
Nc1cc(N2CCCCC2)c([N+](=O)[O-])cc1Cl,-1,3,0.8,4%,-25,
CC1Cc2ccccc2N1S(=O)(=O)c1cccc(C(=O)NCCCO)c1 (stereo not given),4,-21,-0.8,-3%,-32,
O=C1CC(N2CCN(Cc3ccccc3)CC2)C(=O)N1c1ccc2c(c1)OCCO2 (stereo not given),0,6,-3.9,-1%,4,
COc1ccccc1-n1c(-c2ccc(NS(C)(=O)=O)cc2)n[nH]c1=S,2,3,0.9,-1%,-23,
Cc1ccsc1/C=C1\C(=O)NC(=S)N(C)C1=O,·,2,-4.3,·,·,
CC(=O)Nc1ccc(/C=C(\C#N)C(=O)NC2CCCCC2C)cc1 (stereo not given),2,16,0.2,4%,·,
N#Cc1ccc(N2CCNCC2)c(F)c1,-2,-7,1.2,-2%,-17,
CCC1CN(C(=O)NCc2ccc(F)cc2)c2cc(C)ccc2O1 (stereo not given),·,-4,-1.4,·,·,
Cc1c(Cl)cccc1NC(=O)Nc1cnccn1,·,-6,-1.5,·,·,
CCC(C)C(=O)Nc1ccccc1N1CCN(c2ccc(F)cc2)CC1 (stereo not given),·,6,7.7,·,·,
O=C(NCc1ccco1)c1cccc(F)c1,2,0,2.7,2%,-27,
Cc1ccc(-c2nc(N3CCOCC3)sc2C(=O)N2CCCCC2)cc1,5,3,-0.2,·,-30,
O=C(OCC(=O)N1CCCc2ccccc21)c1cc(Cl)ccc1O,·,-2,0.9,·,·,
Cc1c(O)cc2c(c1O)C(=O)CC(c1ccccc1)O2 (stereo not given),·,-3,6.9,2%,·,
Cc1ccc2c(c1)/C(=C/c1ccccc1F)C(=O)N2,·,6,0.3,·,·,
CCOC(=O)c1ccc(NS(=O)(=O)c2cn(C)cn2)cc1,·,6,-2.5,·,·,
SMILES,Arbovirus anti,Mtb betalactam,RecA intein inh,Mtb H37Rv,YopH PTP inh,others
C[C@]12CC[C@@H]3c4ccc(O)cc4CC[C@H]3[C@@H]1C[C@@H](O)[C@@H]2O[C@@H]1O[C@H](C(=O)O)[C@@H](O)[C@H](O)[C@H]1O,6,-6,-2.3,9%,-35,
COCCNC(=O)COc1coc(CN2CCN(Cc3ccccc3)CC2)cc1=O,·,-10,-6.6,·,·,
Cc1ccc(S(=O)(=O)Oc2ccc(/C=C(/NC(=O)c3ccccc3)C(=O)NCCC(=O)O)cc2)cc1,-3,1,1.7,5%,·,
O=C(OCc1nnc(-c2ccccc2)o1)c1ccco1,10,-1,2.1,6%,-32,
COc1cc(/C=N/NC(=S)Nc2cccc(C(=O)O)c2)cc(OC)c1OC,-9,3,6.3,-2%,-24,
Cn1c(C(C#N)C(=O)c2sc3ccccc3c2Cl)nc2ccccc21 (stereo not given),-8,64,-3.5,94%,-9,
Cc1nc(CC(=O)NNS(=O)(=O)c2ccc3ccccc3c2)cs1,6,1,-2.3,2%,-34,
CCN1C(=O)[C@@H]2[C@@H](c3ccc(-c4ccc5c(c4)OCO5)cc3)N3CCCC[C@@]3(C(=O)OC)[C@@H]2C1=O,·,-1,4.7,·,·,
COc1ccc(C(=O)NNS(=O)(=O)c2ccccc2)cc1,-2,-5,1.7,-4%,-16,
CCn1c(CNc2ccc(F)cc2)nnc1SCC(=O)Nc1ccc(OC)cc1,9,3,0.9,3%,0,
COc1ccc(C2=NN(C(=O)CCC(=O)O)C(c3cccs3)C2)cc1 (stereo not given),15,0,-1.4,-9%,·,
Cc1nc(Cl)c(C(=O)Nc2cccc(F)c2)c(C)c1Cl,-6,6,1.7,-6%,·,
COc1ccc2ccccc2c1C1CC(=O)N2CN(C3CCCCC3)CSC2=C1C#N (stereo not given),6,-3,12,5%,11,Arbovirus anti repeat=4
CNC(=S)Nc1cc(Cl)ccc1Oc1ccccc1,-5,-11,4.4,-4%,-33,
COc1cc(CC(=O)NCc2cccs2)cc(OC)c1OC,2,-14,-2.2,-5%,-13,
C[C@]12C(=O)N(c3ccc(F)cc3)C(=O)N1[C@@H]1c3ccccc3OC[C@@H]1[C@H]2c1ccccc1,·,-5,8.2,·,·,
O=C(CN1CCC(N2CCCCC2)CC1)N1CCOCC1,6,1,1.9,5%,·,
CC1=NN(c2nc(-c3ccc(C#N)cc3)cs2)C(=O)C1,15,5,·,-4%,·,
O=C(NC(=S)Nc1ccc(N2CCOCC2)c(Cl)c1)c1sc2ccccc2c1Cl,7,-6,-2.2,32%,-35,
CC(C)c1onc(C(=O)N2CCN(C(c3ccccc3)c3ccccc3)CC2)c1[N+](=O)[O-],-4,6,0.7,·,-18,
O=C(NCC1CCCCC1)c1cc(Br)ccc1Cl,·,8,2.3,·,·,
CCOc1ccccc1NC(=O)COC(=O)Cc1ccc(-c2ccccc2)cc1,3,1,1.8,1%,-32,
O=C(NOC(=O)c1ccccc1)c1ccccc1,·,29,5.7,-11%,·,
Cc1c(NS(=O)(=O)c2ccc([N+](=O)[O-])cc2)c(=O)n(-c2ccccc2)n1C,·,0,2.5,·,·,
CC(NS(=O)(=O)c1ccccc1)C1COc2ccccc2O1 (stereo not given),14,-6,3.0,-11%,2,
SMILES,Arbovirus anti,Mtb betalactam,RecA intein inh,Mtb H37Rv,YopH PTP inh,others
O=c1[nH]c(=O)n(Cc2ccco2)c(O)c1C=NC1CC1,2,-9,0.0,-7%,-53,
Cc1ccc(C(C(=O)NC2CCCC2)N(Cc2ccco2)C(=O)CCC(=O)Nc2ccccn2)cc1 (stereo not given),-8,-5,1.1,9%,-34,
O=C(CN1CCCC1)Nc1nc(-c2ccc3c(c2)CCN3C(=O)c2ccccc2F)cs1,·,44,3.9,·,·,
CC(C)CN1CCN(Cc2c(F)cccc2Cl)CC1CCO (stereo not given),0,-11,0.5,-3%,·,
CC1=NC(=O)C(N=Nc2ccccc2)N1c1ccccc1 (stereo not given),-4,59,3.3,5%,-9,
Cc1cc(N2C(=O)C(O)=C(C(=O)c3ccc(C)o3)C2c2ccc([N+](=O)[O-])cc2)no1 (stereo not given),·,6,-0.8,·,·,
COc1ccc2nc(NNC(=O)C3COc4ccccc4O3)sc2c1 (stereo not given),8,1,-3.5,·,-38,
CCn1c(O)c(/C=N/N=C/c2ccccc2)c2ccc(C3=NNC(=O)CC3)cc21,-12,5,-21,-4%,-11,
Cn1c(Oc2ccc(Cl)c3cccnc23)nc2c1c(=O)n(Cc1ccccc1Cl)c(=O)n2C,0,·,·,-4%,-2,
CC(=O)Nc1ccc(C(=O)C(Cc2ccccc2)N(C)C)cc1 (stereo not given),·,-3,-0.9,·,·,
Cc1cc(CNC(=O)COc2ccccc2)c2ccccc2n1,10,·,-1.6,-13%,·,
Cc1csc(=O)n1CCC(=O)OCC(=O)NCc1ccc(Cl)cc1Cl,·,-13,-0.7,·,·,
CCNc1nc(Oc2ccc(=O)n(-c3ccccc3)n2)nc(N(C)C)n1,5,-7,-2.4,-11%,-10,
COc1cccc(-n2nc(C(=O)N3CC(C)CC(C)C3)c3ccccc3c2=O)c1 (stereo not given),2,-4,-2.7,5%,-9,
CC(C)(C)NC(=O)CSCc1c(Cl)cccc1Cl,-5,-4,3.1,-9%,-48,
O=C(NCC1CCCO1)C(c1cccs1)N(Cc1ccccc1)C(=O)c1ccc(-c2ccccc2)[nH]1 (stereo not given),-23,47,13,13%,5,
Cc1ccc(Nc2nc(C)c(CCC(C)C)c(=O)[nH]2)cc1,8,3,-1.1,3%,-14,
NC(=O)c1ccsc1NC(=O)CCS(=O)(=O)c1ccc(F)cc1,·,-1,-12,·,·,
COC(=O)CSc1nnc(CNC(=O)c2ccccc2OC)n1C,3,-8,-1.2,-4%,-38,
Cc1cc(C)c2cc(C#N)c(NCCNC(=S)NCCCN3CCOCC3)nc2c1,19,-1,-7.6,-3%,·,
COc1ccc2nc(NC(=O)CN(c3ccc(C)cc3)S(=O)(=O)c3c(C)nn(C)c3C)sc2c1,-2,95,1.7,4%,-32,
Cn1c(=O)[nH]c(=O)c2c1nc(NC1CCCCC1)n2CC(=O)NC1CCCCC1,3,·,·,0%,19,
c1ccc(Cc2nnc(N3CCCCC3)c3ccccc23)cc1,7,2,4.8,-5%,·,
Cc1ccc(Cc2cnc(N)s2)o1,3,91,2.1,75%,-4,Arbovirus anti repeat=-3
CCCCc1cc(C)c(S(=O)(=O)c2ccccc2C)c(=O)[nH]1,·,2,-2.3,·,·,
SMILES,Arbovirus anti,Mtb betalactam,RecA intein inh,Mtb H37Rv,YopH PTP inh,others
Fc1ccccc1CNc1nc(-c2cccnc2)nc2ccccc12,·,81,5.1,·,·,
COc1cccc(CN2CCN(Cc3nc(-c4cccc(F)c4F)oc3C)CC2=O)c1,8,-1,0.7,-4%,·,
Cc1occc(=O)c1O,7,-10,1.2,-1%,-34,
O=C(O)c1ccc(CSc2nc3ccc(NC(=O)c4ccccc4C(=O)O)cc3s2)cc1,1,3,3.4,-3%,·,
Cn1cc(/C=C(\C#N)C(=O)Nc2ncc(Cc3ccc(Cl)cc3)s2)c2ccccc21,-29,-1,-18,2%,-14,
O=C(Nn1cnnc1)c1ccccc1Cl,·,5,0.2,·,·,
Cc1ccc(C)c2[nH]c(=O)c(CCNC(=O)CCc3ccccc3)cc12,·,-10,-2.6,·,·,
CC(OC(=O)Cn1c(C(F)(F)F)nc2ccccc21)C(=O)N1CCCc2ccccc21 (stereo not given),5,-14,·,-6%,-14,
CCCCNC1C(CC)C(CCC)C(C#N)(C#N)C1(C#N)C#N (stereo not given),5,68,76*,-17%,-24,

# As a short view, 2 of the compounds above.
SMILES,Arbovirus anti,Mtb betalactam,RecA intein inh,Mtb H37Rv,YopH PTP inh,others
Fc1ccccc1CNc1nc(-c2cccnc2)nc2ccccc12,·,81,5.1,·,·,
COc1cccc(CN2CCN(Cc3nc(-c4cccc(F)c4F)oc3C)CC2=O)c1,8,-1,0.7,-4%,·,

# Among those listed so far, these contain fluorine:
SMILES,Arbovirus anti,Mtb betalactam,RecA intein inh,Mtb H37Rv,YopH PTP inh,others
N#Cc1ccc(N2CCNCC2)c(F)c1,-2,-7,1.2,-2%,-17,
CCC1CN(C(=O)NCc2ccc(F)cc2)c2cc(C)ccc2O1 (stereo not given),·,-4,-1.4,·,·,
CCC(C)C(=O)Nc1ccccc1N1CCN(c2ccc(F)cc2)CC1 (stereo not given),·,6,7.7,·,·,
O=C(NCc1ccco1)c1cccc(F)c1,2,0,2.7,2%,-27,
Cc1ccc2c(c1)/C(=C/c1ccccc1F)C(=O)N2,·,6,0.3,·,·,
CCn1c(CNc2ccc(F)cc2)nnc1SCC(=O)Nc1ccc(OC)cc1,9,3,0.9,3%,0,
Cc1nc(Cl)c(C(=O)Nc2cccc(F)c2)c(C)c1Cl,-6,6,1.7,-6%,·,
C[C@]12C(=O)N(c3ccc(F)cc3)C(=O)N1[C@@H]1c3ccccc3OC[C@@H]1[C@H]2c1ccccc1,·,-5,8.2,·,·,
O=C(CN1CCCC1)Nc1nc(-c2ccc3c(c2)CCN3C(=O)c2ccccc2F)cs1,·,44,3.9,·,·,
CC(C)CN1CCN(Cc2c(F)cccc2Cl)CC1CCO (stereo not given),0,-11,0.5,-3%,·,
NC(=O)c1ccsc1NC(=O)CCS(=O)(=O)c1ccc(F)cc1,·,-1,-12,·,·,
Fc1ccccc1CNc1nc(-c2cccnc2)nc2ccccc12,·,81,5.1,·,·,
COc1cccc(CN2CCN(Cc3nc(-c4cccc(F)c4F)oc3C)CC2=O)c1,8,-1,0.7,-4%,·,
CC(OC(=O)Cn1c(C(F)(F)F)nc2ccccc21)C(=O)N1CCCc2ccccc21 (stereo not given),5,-14,·,-6%,-14,

# Screening results from PubChem BioAssay.
